Bioassay records (PubChem BioAssay)
Vaccinia inh = blocks a specific stage of Vaccinia orthopoxvirus infection; 89,000 compounds, 0.01% hits; activity change (mCherry), % (no concentration beside the values); AID 1053133; Vaccinia-infected cells, mCherry/Venus stage reporter fluorescence; stronger effect = lower value; some inactives read as strong as hits;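 active = mCherry past -33% and 40 or more points under the early reporter, replicates agreeing; inconclusive = past -33% without that gap or agreement; tested in A549 cells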;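 note: scaled between vehicle wells and reference inhibitor wells; 23 nL library stock went into each well; one replicate is shown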
Vaccinia inh Venus = recorded beside Vaccinia inh, whose call it bears; activity change (Venus), %; measured here: Venus reporter, other viral stage;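 negative = less Venus signal; first of two replicates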
Starred values were filed as active, the others as inactive; ? = inconclusive; · = not tested or not shown.

Preview (10 entries):
SMILES	Vaccinia inh	Vaccinia inh Venus
C[C@@H]1CCCCO[C@H](CN(C)CC2CCCCC2)[C@@H](C)CN([C@H](C)CO)C(=O)c2cc(NC(=O)C3CCCCC3)ccc2O1	-28	-20
Cc1noc(C)c1NC(=O)Nc1ccc2c(c1)CC(=O)N([C@H](C)CO)C[C@H](C)[C@@H](CN(C)C(=O)Nc1c(C)noc1C)O2	15	6
Cc1ccc(S(=O)(=O)N(C)C[C@H]2Oc3ccc(NC(=O)c4ccncc4)cc3CC(=O)N([C@H](C)CO)C[C@@H]2C)cc1	3	-4
COc1ccc(NC(=O)N2CCCCN3[C@H](CO)[C@H](c4ccc(C#CCC(C)C)cc4)[C@@H]3C2)cc1	-8	-3
O=C(C[C@H]1CC[C@H]2[C@@H](COC[C@@H](O)CN2S(=O)(=O)c2ccc(F)cc2)O1)N[C@H]1CCN(Cc2ccccc2)C1	-4	-5
COc1ccc(S(=O)(=O)N(C)C[C@H]2Oc3ccc(NC(=O)CCCN(C)C)cc3CC(=O)N([C@@H](C)CO)C[C@@H]2C)cc1	-8	-6
C[C@@H](O)C#Cc1ccc([C@@H]2[C@H]3CN(CC4CC4)CCCCN3[C@H]2CO)cc1	17	-6
Cc1ccc(S(=O)(=O)Nc2cccc3c2O[C@@H](CN(C)Cc2ccc(C(F)(F)F)cc2)[C@H](C)CN([C@H](C)CO)C3=O)cc1	-14	-15
CN1[C@@H]2Cn3c(ccc(-c4ccccc4)c3=O)[C@H]1[C@@H](C(=O)NCC1CC1)[C@@H]2CO	11	4
CO[C@H]1CN(C)C(=O)c2cc(NC(C)=O)ccc2OC[C@H](C)N(Cc2cccc(F)c2)C[C@H]1C	7	6

The listing, from the start:
SMILES	Vaccinia inh	Vaccinia inh Venus
C[C@@H]1CCCCO[C@H](CN(C)CC2CCCCC2)[C@@H](C)CN([C@H](C)CO)C(=O)c2cc(NC(=O)C3CCCCC3)ccc2O1	-28	-20
Cc1noc(C)c1NC(=O)Nc1ccc2c(c1)CC(=O)N([C@H](C)CO)C[C@H](C)[C@@H](CN(C)C(=O)Nc1c(C)noc1C)O2	15	6
Cc1ccc(S(=O)(=O)N(C)C[C@H]2Oc3ccc(NC(=O)c4ccncc4)cc3CC(=O)N([C@H](C)CO)C[C@@H]2C)cc1	3	-4
COc1ccc(NC(=O)N2CCCCN3[C@H](CO)[C@H](c4ccc(C#CCC(C)C)cc4)[C@@H]3C2)cc1	-8	-3
O=C(C[C@H]1CC[C@H]2[C@@H](COC[C@@H](O)CN2S(=O)(=O)c2ccc(F)cc2)O1)N[C@H]1CCN(Cc2ccccc2)C1	-4	-5
COc1ccc(S(=O)(=O)N(C)C[C@H]2Oc3ccc(NC(=O)CCCN(C)C)cc3CC(=O)N([C@@H](C)CO)C[C@@H]2C)cc1	-8	-6
C[C@@H](O)C#Cc1ccc([C@@H]2[C@H]3CN(CC4CC4)CCCCN3[C@H]2CO)cc1	17	-6
Cc1ccc(S(=O)(=O)Nc2cccc3c2O[C@@H](CN(C)Cc2ccc(C(F)(F)F)cc2)[C@H](C)CN([C@H](C)CO)C3=O)cc1	-14	-15
CN1[C@@H]2Cn3c(ccc(-c4ccccc4)c3=O)[C@H]1[C@@H](C(=O)NCC1CC1)[C@@H]2CO	11	4
CO[C@H]1CN(C)C(=O)c2cc(NC(C)=O)ccc2OC[C@H](C)N(Cc2cccc(F)c2)C[C@H]1C	7	6
COc1ccc(NC(=O)Nc2ccc3c(c2)C(=O)N([C@H](C)CO)C[C@@H](C)[C@H](CN(C)Cc2ccc(C(=O)O)cc2)OCCCC[C@@H](C)O3)cc1	14	7
C[C@@H]1CN([C@@H](C)CO)C(=O)Cc2cc(NC(=O)C3CCCCC3)ccc2O[C@@H]1CN(C)CC1CC1	1	-1
COCCNC(=O)C[C@H]1C[C@H]2c3cc(NS(C)(=O)=O)ccc3O[C@H]2[C@@H](CO)O1	1	-3
COc1ccc(S(=O)(=O)N(C)C[C@H]2Oc3ncc(C#CC4(O)CCCC4)cc3C(=O)N([C@@H](C)CO)C[C@@H]2C)cc1	?	·
COc1cccc(CNC(=O)C[C@@H]2C=C[C@H](NC(=O)C3CC3)[C@H](CO)O2)c1	10	11
Cc1ccc(S(=O)(=O)N(C)C[C@@H]2Oc3c(NC(=O)Nc4ccccc4)cccc3C(=O)N([C@H](C)CO)C[C@H]2C)cc1	-1	7
C[C@H]1CN([C@@H](C)CO)C(=O)c2cc(C#Cc3ccccc3F)cnc2O[C@@H]1CN(C)C(=O)C1CCC1	-19	-18
O=C(C[C@H]1C=C[C@@H](NC(=O)c2cnccn2)[C@H](CO)O1)NCc1ccccc1F	-2	-1
CNC[C@@H]1Oc2ccc(NS(C)(=O)=O)cc2CC(=O)N([C@H](C)CO)C[C@H]1C	1	4
CNC[C@H]1Oc2c(NC(=O)NC(C)C)cccc2C(=O)N([C@@H](C)CO)C[C@H]1C	15	7
C[C@H](CO)N1C[C@H](C)[C@@H](CN(C)S(=O)(=O)c2ccccc2)OCCCC[C@H](C)Oc2ccc(NC(=O)Nc3ccc4c(c3)OCO4)cc2C1=O	17	9
COCC#Cc1ccc2c(c1)O[C@H](CN(C)CC1CCOCC1)[C@H](C)CN([C@H](C)CO)S2(=O)=O	14	3
C[C@@H]1CN([C@@H](C)CO)C(=O)c2cc(NC(=O)c3ccncc3)ccc2O[C@@H]1CN(C)Cc1ccc(C(=O)O)cc1	5	-5
CCS(=O)(=O)N[C@H]1CC[C@@H](CC(=O)Nc2ccc(-c3ccccc3)cc2)O[C@@H]1CO	-4	6
CO[C@@H]1CN(C)C(=O)c2cc(NC(=O)Nc3ccccc3F)ccc2OC[C@@H](C)N(CC2CC2)C[C@H]1C	?	·

Going on with the list.
SMILES	Vaccinia inh	Vaccinia inh Venus
O=C(C[C@@H]1C=C[C@H](NC(=O)c2ccncc2)[C@H](CO)O1)NCC1CC1	8	10
C[C@H](CO)N1C[C@H](C)[C@H](CN(C)Cc2cccc(C(F)(F)F)c2)Oc2ncc(Br)cc2C1=O	-15	-10
CCCN(C)C[C@H]1Oc2ncc(-c3cccnc3)cc2C(=O)N([C@@H](C)CO)C[C@@H]1C	16	7
O=C(c1ccc2c(c1)OCO2)N1CCCCN2[C@H](CO)[C@@H](c3ccc(-c4ccccc4)cc3)[C@@H]2C1	-27	-34
CCC(=O)N1[C@H](CO)[C@H](c2ccccc2)[C@@H]1CN(CC)C(=O)c1cccc(F)c1	16	6
C[C@@H]1CN([C@@H](C)CO)C(=O)c2cc(NS(=O)(=O)c3cccs3)ccc2O[C@@H]1CN(C)C(=O)Nc1ccc(C(F)(F)F)cc1	8	7
N#Cc1ccc(-c2ccc([C@@H]3[C@H]4CN(C(=O)Cc5ccccc5)CC(=O)N4[C@H]3CO)cc2)cc1	-4	-5
C[C@H]1CN([C@@H](C)CO)C(=O)CCCn2nncc2CO[C@@H]1CN(C)S(=O)(=O)c1ccccc1C#N	9	5
COc1cccc(-c2ccc3c(c2)[C@@H]2[C@@H](CCN2S(=O)(=O)c2cccc(OC)c2)[C@@H](CO)N3)c1	-27	-20
CNC[C@@H]1Oc2c(NC(=O)c3ccc(-c4nccs4)cc3)cccc2C(=O)N([C@@H](C)CO)C[C@H]1C	2	1
C/C=C/c1ccccc1[C@H]1[C@@H](C#N)N(C(=O)CN2CCOCC2)[C@@H]1CO	14	5
C[C@H]1CN([C@@H](C)CO)C(=O)c2cc(NC(=O)Cn3cnnn3)ccc2O[C@H]1CN(C)C(=O)Nc1ccc2c(c1)OCO2	31	20
CO[C@@H](CN(C)S(=O)(=O)c1ccc(C)cc1)[C@@H](C)CN([C@H](C)CO)S(=O)(=O)c1cccc(Cl)c1	?	·
CCNC(=O)Nc1ccc2c(c1)C(=O)N(C)[C@@H]1CC[C@@H](CC(=O)NCc3ccccc3F)O[C@H]1CO2	7	5
CN1CCN(C(=O)C[C@H]2CC[C@H](NC(=O)Cc3ccccn3)[C@@H](CO)O2)CC1	3	3
C[C@@H]1CCCCO[C@@H](CN(C)C(=O)c2ccncc2)[C@H](C)CN([C@H](C)CO)C(=O)c2cc(NC(=O)C3CCCCC3)ccc2O1	0	8
CN(C)C(=O)C[C@@H]1CC[C@@H]2[C@H](COC[C@H](O)CN2C(=O)C2CCOCC2)O1	-2	0
COc1ccc(S(=O)(=O)N(C)C[C@H]2OCCCC[C@@H](C)Oc3ccc(NC(=O)c4ccccc4)cc3C(=O)N([C@@H](C)CO)C[C@H]2C)cc1	-23	-18
Cc1noc(C)c1NC(=O)N(C)C[C@@H]1Oc2ccc(NC(=O)Nc3ccccc3)cc2C(=O)N([C@H](C)CO)C[C@H]1C	12	18
C[C@H]1CN([C@@H](C)CO)C(=O)c2cccc(NC(=O)NC3CCCCC3)c2O[C@@H]1CN(C)C(=O)Nc1cccc2ccccc12	-10	-6
O=C(NCC1CCCCC1)[C@@H]1[C@@H](CO)[C@@H]2Cn3c(ccc(-c4ccccc4F)c3=O)[C@H]1N2	-6	-1
COc1ccc(NC(=O)N2CC[C@@H]3[C@@H](CO)N(C)c4ccc(Br)cc4[C@@H]32)cc1	5	-3
C[C@@H]1CN([C@H](C)CO)C(=O)Cc2cc(NC(=O)Cc3cn(C)c4ccccc34)ccc2O[C@@H]1CN(C)S(=O)(=O)c1ccc(F)cc1	2	-4
CCN1[C@H](C(=O)NC2CCCCC2)[C@@H](CO)[C@@H]2Cn3c(ccc(-c4cccnc4)c3=O)[C@@H]21	0	13
COc1ccc(-c2ccc([C@H]3[C@H](C#N)N(C(=O)NC4CCCC4)[C@H]3CO)cc2)cc1	?	·

(continued)
SMILES	Vaccinia inh	Vaccinia inh Venus
O=C(c1ccc(F)cc1)N1CC(=O)N2[C@H](C1)[C@@H](c1ccc(-c3ccccc3F)cc1)[C@@H]2CO	12	9
O=C(NCc1ccc(F)cc1)[C@H]1[C@H](CO)[C@H]2Cn3c(cccc3=O)[C@@H]1N2	-3	3
C[C@@H]1CN([C@H](C)CO)C(=O)c2cc(NC(=O)Cc3ccccc3)ccc2O[C@H]1CN(C)Cc1ccc2c(c1)OCO2	-15	2
C[C@H](CO)N1C[C@H](C)[C@H](CN(C)C(=O)Nc2ccc(F)cc2)Oc2ccc(NC(=O)CCCN(C)C)cc2C1=O	8	6
CO[C@H]1CN(C)C(=O)c2cc(NS(=O)(=O)c3ccc(Cl)cc3)ccc2OC[C@H](C)NC[C@@H]1C	4	3
CCCNC(=O)N1C[C@@H]2[C@H](c3ccccc31)[C@@H](CO)N2C(=O)NC(C)C	10	9
O=C(N[C@H]1C=C[C@H](CC(=O)N2CCC(Cc3ccccc3)CC2)O[C@H]1CO)c1cnccn1	-3	-4
C[C@@H]1CN([C@H](C)CO)C(=O)c2cc(-c3cccc(F)c3)cnc2O[C@H]1CN(C)C(=O)c1ccccn1	2	1
CCC(=O)N1C[C@@H]2[C@H](c3ccccc31)[C@@H](CO)N2Cc1ccccc1Cl	22	23
COCC(=O)Nc1ccc2c(c1)C(=O)N(C)[C@H]1CC[C@@H](CC(=O)NCC3CC3)O[C@H]1CO2	2	-1
COc1ccc(S(=O)(=O)N(C)C[C@@H]2Oc3c(NC(=O)Nc4cccc5ccccc45)cccc3C(=O)N([C@@H](C)CO)C[C@@H]2C)cc1	?	·
CNC(=O)C[C@@H]1CC[C@H]2[C@@H](COC[C@H](O)CN2Cc2ccc(C(F)(F)F)cc2)O1	1	1
COc1cccc(NC(=O)C[C@@H]2CC[C@@H]3[C@H](COc4ccc(NC(=O)C5CC5)cc4C(=O)N3C)O2)c1	6	2
Cc1ccc(S(=O)(=O)N2C[C@H](O)COC[C@H]3O[C@H](CC(=O)NCCCN(C)C)CC[C@@H]32)cc1	1	4
O=C(C[C@H]1C[C@@H]2c3cc(NC(=O)Nc4ccccc4)ccc3O[C@@H]2[C@H](CO)O1)NCCN1CCCCC1	3	5
C[C@H]1CN([C@@H](C)CO)C(=O)c2cccc(NC(=O)Nc3ccccc3)c2O[C@@H]1CN(C)S(=O)(=O)c1cn(C)cn1	-3	0
C[C@H]1CCCCO[C@H](CN(C)S(=O)(=O)c2ccccc2)[C@@H](C)CN([C@@H](C)CO)C(=O)c2cc(NC(=O)Nc3ccc(F)cc3)ccc2O1	0	5
C[C@@H]1CCCCO[C@@H](CN(C)Cc2ccc(C(=O)O)cc2)[C@@H](C)CN([C@H](C)CO)C(=O)c2cc(NC(=O)NC3CCCCC3)ccc2O1	10	8
C[C@@H]1CCCCO[C@@H](CN(C)CC2CCCCC2)[C@@H](C)CN([C@H](C)CO)C(=O)c2cc(NC(=O)c3ccncc3)ccc2O1	15	0
C#Cc1ccc([C@@H]2C=C(C(=O)N3CCN(Cc4ccc5c(c4)OCO5)CC3)O[C@H](OCC)[C@H]2CCCO)cc1	-28	-15
C[C@@H]1CN([C@H](C)CO)C(=O)c2ccccc2-c2ccccc2CO[C@H]1CN(C)S(=O)(=O)c1ccsc1	5	5
Cc1ccc(-c2ccc3c(c2)O[C@@H](CN(C)S(C)(=O)=O)[C@@H](C)CN([C@H](C)CO)S3(=O)=O)cc1	-23	-27
COc1ccc(NC(=O)N(C)C[C@@H]2OCCCC[C@H](C)Oc3ccc(NS(=O)(=O)c4cccs4)cc3C(=O)N([C@H](C)CO)C[C@H]2C)cc1	2	-1
COc1cccc(NC(=O)N(C)C[C@H]2Oc3ncc(C#Cc4ccccc4)cc3C(=O)N([C@@H](C)CO)C[C@H]2C)c1	-6	-15
C[C@@H]1CN([C@H](C)CO)C(=O)c2cc(/C=C/c3ccccc3)cnc2O[C@@H]1CN(C)S(=O)(=O)c1cccs1	?	·
COc1ccccc1NC(=O)N1C[C@H](O)COC[C@@H]2O[C@@H](CC(=O)NCc3ccccc3)CC[C@H]21	7	7
COc1ccc(S(=O)(=O)N(C)C[C@@H]2Oc3ccc(NC(=O)Nc4ccccc4)cc3C(=O)N([C@@H](C)CO)C[C@H]2C)cc1	4	1
O=C(C1CCCCC1)N1CC(=O)N2[C@H](CO)[C@@H](c3ccc(Br)cc3)[C@H]2C1	4	3
CC(=O)N(C)C[C@H]1Oc2ncc(C#CC3(O)CCCC3)cc2C(=O)N([C@@H](C)CO)C[C@@H]1C	1	-5
C[C@@H]1CCCCO[C@H](CN(C)Cc2ccc3c(c2)OCO3)[C@@H](C)CN([C@@H](C)CO)C(=O)c2cc(NS(=O)(=O)c3ccccc3)ccc2O1	?	·

A portion of the library; count on the stated rates, not on these rows.
